# Prx2 Sm inh: Schistosoma Mansoni Peroxiredoxins (Prx2); S. mansoni Prx2 activity coupled to TGR/GSH (TGR is thioredoxin glutathione reductase), NADPH fluorescence loss, qHTS; some inactives read as strong as hits; 65,000 tested, 0.07% active; Potency, µM; Schistosoma mansoni peroxiredoxin 2 (Prx2); active means full or partial inhibition curve with a strong effect at the top dose; inconclusive means weaker partial or single-point curve; inactive means no accepted curve; note: series up to 57 µM; many of its hits are not listed in these tables
#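 Coupled assay in which S. mansoni TGR passes NADPH reducing equivalents via glutathione to Prx2, which reduces H2O2. Compounds were preincubated 15 min at room temperature with 25 nM TGR/50 nM Prx2 mix. Kinetic NADPH fluorescence loss (ex 365/em 450 nm) was monitored.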
# LT uptake inh: qHTS Assay for Anthrax Lethal Toxin Internalization | Cells, anthrax lethal toxin internalization, FRET ratio (460/530) | Potency, µM (series often up to 40 µM), inactives show top-dose activity change, negative = inhibition, usual class: inhibitors | 70,000 tested, 0.67% active | AID 912, 2007; active = well fitted falling ratio curve with the 530 nm signal flat; inconclusive = other ratio curves, or a change in one channel alone; inactive = flat curves in the ratio and both channels; the % refers to the ratio; note: % is set by controls: 0 for no effect and ±100 for the full control effect; nearly all actives have a fitted effect of over 50% in size; tested in ME-180 cells; beta-lactamase reporter
# * marks the source's active call; other numbers are inactive results; ? = inconclusive; · = no result given; & = joins results of further samples; [ ] = another dose, or the depositor's remark. Potency is the fitted concentration of half-maximal effect.
# Start of the data: the first seven records (preview)
SMILES,Prx2 Sm inh,LT uptake inh
COc1ccccc1CN1CC[C@@]2(CCCN(C(=O)c3cccn3C)C2)C1,>57,1%
O=C(NC1CCCC1)C1CCCN(S(=O)(=O)c2ccc(-n3cnnn3)cc2)C1 (centres undefined),>57,6%
CCOC(=O)C(C(C)=O)c1c(Br)c(O)c(O)c2c(C(=O)c3ccc(C)cc3)coc12 (centres undefined),>57,?
CCOc1ncccc1C(=O)OCc1ccc(C(=O)OC)o1,>57,-6%
COc1ccc(C[C@H](O)CN2CCOCC2)cc1,>57,-14%[8 µM]
CCN(C(=O)c1ccccc1Cl)c1ccccc1,>57,1%
COc1ccc(-n2c(O)c(/C=N/n3cnnc3)c3ccccc3c2=O)cc1,·,?

# Results, from the start:
SMILES,Prx2 Sm inh,LT uptake inh
COc1ccccc1CN1CC[C@@]2(CCCN(C(=O)c3cccn3C)C2)C1,>57,1%
O=C(NC1CCCC1)C1CCCN(S(=O)(=O)c2ccc(-n3cnnn3)cc2)C1 (centres undefined),>57,6%
CCOC(=O)C(C(C)=O)c1c(Br)c(O)c(O)c2c(C(=O)c3ccc(C)cc3)coc12 (centres undefined),>57,?
CCOc1ncccc1C(=O)OCc1ccc(C(=O)OC)o1,>57,-6%
COc1ccc(C[C@H](O)CN2CCOCC2)cc1,>57,-14%[8 µM]
CCN(C(=O)c1ccccc1Cl)c1ccccc1,>57,1%
COc1ccc(-n2c(O)c(/C=N/n3cnnc3)c3ccccc3c2=O)cc1,·,?
O=C(Nc1ccccc1O)c1cc(S(=O)(=O)N2CCOCC2)ccc1Cl,>57,21%
O=C(NC1=NCCS1)c1cc(-c2ccccc2)nn1-c1ccccc1,>57,6%
Cc1ccc(CN2C(=O)CCC2C(=O)NC2CC2)cc1 (centres undefined),>57,9%
CCOC(=O)/C=C1\SCC(=O)N1Cc1ccc(Br)cc1,>57,0%
COC(=O)NC(c1ccccc1)C(C(=O)OC)C(=O)OC (centres undefined),·,-1%[8 µM]
CCOCCCN=Cc1c(O)n(Cc2ccccc2)c(=O)[nH]c1=O,>57,5%
COCCSc1ccccc1C(=O)N1CCCC1,>57,11%
Cc1c(Cl)cccc1NC(=O)CN1C(=O)CSc2ncccc21,>57,?
CCCCn1nnnc1SCC(=O)Nc1ccc2c(c1)OCCO2,>57,-13%
c1ccc(CNCCN2CCNCC2)nc1,>57&>57,-8%
Cn1cc(C(=O)NCCN2CCN(c3ccccc3F)CC2)c2c3ccccc3n(C)c2c1=O,>57,7%
CCOC(=O)c1[nH]c2c(c1C)C(=O)CC(c1ccc(N(C)C)cc1)C2 (centres undefined),>57,-4%
CCc1c(C)nc2ncnn2c1N1CCCC(C(=O)NCCc2ccc(OC)cc2)C1 (centres undefined),>57,-16%
Cc1n[nH]c(C)c1S(=O)(=O)N1CCCC(C(=O)NCc2cccs2)C1 (centres undefined),>57,-3%
COc1cccc(C(=O)Nc2ccc(NC(=O)c3ccco3)nc2)c1,>57,-12%
CCN(CCCNC(=O)C1CCN(S(=O)(=O)CC)CC1)c1ccccc1,>57,6%
COC(=O)c1c(NC(=O)CC2NCCNC2=O)sc2c1CCCC2 (centres undefined),>57,11%
Cc1onc(-c2c(F)cccc2Cl)c1C(=O)OCC(=O)NCc1ccco1,>57,-9%
Cc1c(C)c2c(C)[nH]nc2oc1=O,>57,1%
O=C(CC1Oc2ccccc2NC1=O)NC1CCCC1 (centres undefined),>57,3%
CCN(CC)S(=O)(=O)c1cccc(-c2nnc(SCC(=O)c3ccc(Cl)s3)n2C)c1,>57,-10%
CCOC(=O)c1c(N=CN(C)C)c(C#N)n2c1CCC2,>57,6%
CCP(=O)(CC)c1cccc(N)c1,>57,-10%
COc1ccccc1CNc1ncnc2ccc(-c3ccc4c(c3)OCO4)cc12,>57,?
CC1CCN(CCCNC(=O)c2cc3c(=O)n(C)c4ccccc4c3n2C)CC1,>57,6.3µM*
O=C(CSc1nnc(Cc2ccccc2)o1)N1CCc2ccccc21,>57,1%
O=C(CSc1nnc(-c2ccccn2)n1Cc1ccco1)c1ccc(Cl)cc1,>57,-14%
CCOC(=O)c1ccc(NC(=O)CSCc2ccco2)cc1,·,0%
O=C(O)CCC(=O)N1CCN(c2ccc(C(=O)c3ccc(F)cc3)cc2)CC1,>57,?
CCCn1cc2c(c1-c1cccc(C)c1)c(=O)n(C)c(=O)n2C,>57,·
CN(c1ccccc1C(=O)Nc1ccc2c(c1)OCCO2)S(C)(=O)=O,>57,-7%
Oc1c(Br)cc(CN(Cc2cc(Br)c(O)c(Br)c2)C2CCCCC2)cc1Br,>57,1%[8 µM]
COCCCNC(=O)c1cn(C)c(=O)c2cc(OC)c(OC)cc12,>57,-3%
O=S(=O)(Nc1ccccn1)c1ccc(C2CCCCC2)cc1,>57,-6%
CCOc1cccc(C(=O)NC2CCCCC2)c1,>57,3%
CCOCCCNC(=O)C1CCCN(S(=O)(=O)CC)C1 (centres undefined),>57,2%
O=C(CCc1nc(-c2ccc(Cl)cc2)no1)OCc1ccc(Br)cc1,>57,4%
CCOC(=O)C1=C(N)Oc2cc(C)oc(=O)c2C12C(=O)N1c3c(cc(OC)cc32)C(C)=CC1(C)C (centres undefined),>57,8%
COc1ccc2[nH]c(=O)c(CN(Cc3nnnn3CCc3ccccc3)CC3CCCO3)cc2c1 (centres undefined),>57,6%
CC(C)Sc1nc(-c2cccs2)nc2c1c(=O)n(C)c(=O)n2C,>57,8%
CCOC(=O)C1CCN(C(=O)Cc2c(C(=O)O)n(C)c3ccccc23)CC1,>57,7%
c1ccc(CNc2ncncc2-c2ccc3c(c2)OCO3)cc1,>57,-12%
COC(=O)N1CCC[C@@]2(CCN(C(=O)Nc3ccc(OC)cc3)C2)C1,>57,15%

# Other records:
SMILES,Prx2 Sm inh,LT uptake inh
COc1ccccc1NC(=O)C1=C(C)NC2=C(C(=O)CCC2)C1c1ccc2c(c1)OCO2 (centres undefined),>57,-2%
O=C(O)CCC(=O)c1c[nH]c2ccccc12,>57,2%
CCC(C)Sc1nc2c(c(=O)[nH]c(=O)n2C)n1C (centres undefined),>57,-18%
CCOC(=O)CCc1cccc2c1CCC2=O,>57,-4%
CCOC(=O)c1cc2occc2n1CC(=O)N1CCCc2ccccc21,>57,-17%
CCN(CC)S(=O)(=O)c1ccc2oc(C(=O)O)c(C)c2c1,>57,5%
CCCCn1c(Cc2ccccc2)n[nH]c1=S,>57,2%
CC1(C)Cc2ccccc2-c2nc(NCCO)n(-c3ccccc3)c(=O)c21,·,-7%
CCOC(=O)C1CCN(C(=O)CN(c2ccc3c(c2)OCO3)S(C)(=O)=O)CC1,>57,22%
CCOc1ccc(C(=O)OCC(=O)Nc2nc(OC)cc(OC)n2)cc1OCC,>57,4%
CCC1CCCCN1Cc1nc2c(c(=O)n(C)c(=O)n2C)n1CC(C)C (centres undefined),>57,3%
COc1ccc(C(CNC(=O)c2ccc(OCC3CCCO3)cc2)N2CCOCC2)cc1 (centres undefined),>57,4%
O=C(NCc1ccc2c(c1)OCO2)c1ccc(-n2cnnn2)cc1,>57,?
CCn1c(CNC(=O)c2ccc(OC)c(OC)c2)nnc1SCC(=O)Nc1ccccc1,>57,13%
COc1ccc(C2CC(=O)C3=C(C2)Nc2ncnn2C3c2ccccc2)cc1 (centres undefined),>57,8%
COc1ccc(-c2nc(CS(=O)CC(=O)NCc3cccnc3)c(C)o2)cc1OC (centres undefined),·,2%
Cn1c(=O)cc(OCC(=O)NCCCN2CCN(Cc3ccccc3)CC2)c2ccccc21,>57,-16%
O=C(Cc1ccccc1)Oc1cccc(N2C(=O)CCC2=O)c1,·,19%
Cc1cccc(CS(=O)(=O)Cc2ccc(C(=O)N3CCC4(CC3)OCCO4)o2)c1,>57,17%
Cc1cccc(N2CCN(C(=O)CSCc3c(C)noc3C)CC2)c1C,>57,?
COC(=O)N1CCC2(CCCN(C(=O)Nc3cccc(F)c3)C2)CC1,>57,-7%
COc1cccc(C(=O)CSc2nnc(CNc3nc(-c4ccccc4)cs3)n2C)c1,>57,-2%
CS(=O)(=O)Nc1cccc(-c2nc(N3CCOCC3)c3ccccc3n2)c1,>57,-3%
CCN(CC)c1ccc(NC(=O)c2c(OC)cccc2OC)c(C)c1,>57,?
COc1cccc(C2CC(c3c(F)cccc3Cl)n3nc(N)nc3N2)c1 (centres undefined),>57,-18%
Cc1ccc(-c2ccc(=O)n(CCC(=O)NCc3ccccn3)n2)cc1,>57,15%
COCCn1c(=O)c(-c2cccc(C#N)c2)nc2cnc(Oc3cccc(Cl)c3)nc21,>57,?
CC(=O)Nc1cnc(NC(=O)c2cccc(F)c2)cc1C,>57,?
O=c1cc(-c2ccccc2)oc2cc(O)cc(O)c12,>57,-5%[3.58 µM]
COc1cc(NC(=O)C2CCN(S(=O)(=O)c3cccnc3)CC2)cc(OC)c1OC,>57,-14%

# A draw from above in order of heavy-atom count, rising:
SMILES,Prx2 Sm inh,LT uptake inh
COC(=O)N1CCC2(CCCN(C(=O)Nc3cccc(F)c3)C2)CC1,>57,-7%
Cc1ccc(-c2ccc(=O)n(CCC(=O)NCc3ccccn3)n2)cc1,>57,15%
COc1cc(NC(=O)C2CCN(S(=O)(=O)c3cccnc3)CC2)cc(OC)c1OC,>57,-14%

# Remaining list, next part:
SMILES,Prx2 Sm inh,LT uptake inh
CCCc1cc(=O)[nH]c(/N=C(\N)Nc2ccccc2)n1,>57,-3%
CC12CN3CC(C)(CN(C1)C3c1cccnc1)C2=O (centres undefined),·,-3%
O=C(CSc1nnc(CNC(=O)c2ccco2)o1)c1ccc(Cl)cc1,>57,-23%
COc1ccccc1N1CCN(S(=O)(=O)c2cnc[nH]2)CC1,>57,3%
CCc1noc(C)c1C(=O)Nc1ncc(C)s1,>57,10%
COc1ccc(CNC(=O)CCc2c(C)nc3ncnn3c2C)cc1,>57,-1%
CN1CCN(C(=O)c2cnn(-c3ccccc3)c2NC(=O)c2ccccc2F)CC1,>57,-22%
COc1ccc(-c2cc(C(F)(F)F)n3ncc(C(=O)O)c3n2)cc1OC,>57,-15%
COc1ccc(OCCC(=O)N2CCCCC2)cc1,>57,2%
Cc1ccc2c(c1)CN1CN2Cc2cc(C)ccc21,·,-7%

# 3 entries from above, with two lines to a compound:
# Screens in order – Prx2 Sm inh | LT uptake inh
> COc1ccccc1N1CCN(S(=O)(=O)c2cnc[nH]2)CC1
  >57 | 3%
> CCc1noc(C)c1C(=O)Nc1ncc(C)s1
  >57 | 10%
> COc1ccc(CNC(=O)CCc2c(C)nc3ncnn3c2C)cc1
  >57 | -1%

# New compounds follow
SMILES,Prx2 Sm inh,LT uptake inh
CCOc1ccc2nc(NCCNC(=O)C(C)C)c(C)cc2c1,>57,-10%
O=c1[nH]c(=O)n(Cc2ccc(F)cc2)c(O)c1C=NCCCN1CCOCC1,>57,-10%
CN1CCC(OC(c2ccccc2)c2ccccc2)CC1,>57,16%[3.58 µM]
CCOC(=O)c1[nH]c2ccc(OCC)cc2c1NC(=O)CN1CCN(c2ccccn2)CC1,>57,?
CC(C)(C)c1ccc(O)c(O)c1,·,?
COc1ccccc1CNC(=O)CS(=O)Cc1nc(-c2ccccc2C)oc1C (centres undefined),>57,-8%
CC1CN(C(=O)c2cccs2)CCN1C(=O)c1cccs1 (centres undefined),>57,1%
CC(C)C(C(=O)NCC1CCCO1)N(Cc1ccco1)C(=O)CNS(=O)(=O)c1ccccc1 (centres undefined),>57,-9%
Cc1ccc(C)n1-c1cccc(C(=O)O)c1,>57,?
Cn1c(=O)n(CCc2ccccc2)c(=O)c2c1nc1n2CCCN1c1ccccc1,>57,?
O=C(NC(Cc1ccccc1)C(=O)N1CCCC1C(=O)O)c1ccccc1 (centres undefined),>57,-5%
CC(C)[C@H](CO)Nc1nc(Nc2cc(N)cc(Cl)c2)c2ncn(C(C)C)c2n1,>57,?
O=C(O)[C@@H](O)Cc1ccccn1,>57,-7%[8 µM]
CCN1C(=C2C(=O)c3ccccc3C2=O)C=Cc2ccccc21,·,3%
CCOC(=O)c1c(C)[nH]c(C(=O)OC)c1CCC(=O)OC,·,18%
Cc1ccccc1NC(=O)N1C2CCCC1CC(NC(=O)C(C)(C)C)C2 (centres undefined),>57,5%
FC(F)(F)c1ccccc1-c1nccc(NCc2ccccc2)n1,>57,-6%
Cc1n[nH]c(C)c1S(=O)(=O)N1CCC(C(=O)O)CC1,>57,8%
N[C@]1(C(=O)O)CCc2cc(C(=O)O)ccc21,>57&>57,-12%&2%
CC(C)Cc1cc(C(=O)NCc2cccs2)no1,>57,-10%
CCN(CC)c1ccc(/C=N/n2nnnc2N)c(O)c1,>57,16%
CCOc1cc(Br)c(C(=O)O)cc1OCC,>57,-21%
CC(=O)N1CC2(C)CN(C(C)=O)CC(C)(C1)C2O (centres undefined),>57,-13%
Oc1c(C(c2cccs2)N2CCN(c3cccc(Cl)c3)CC2)sc2ncnn12 (centres undefined),>57,5%
CCOC(=O)c1ccc(CC(=O)c2oc3cc(O)ccc3c2C)o1,>57,?
O=C(Nn1c(-c2ccccc2)nc2ccccc2c1=O)c1ccco1,>57,·
O=C(CN(C1CCCCC1)S(=O)(=O)c1ccc(Cl)cc1)NCc1ccncc1,>57,?
CCc1nnc(NC(=O)C2CCCN2S(=O)(=O)c2ccc(F)cc2)s1 (centres undefined),>57,10%
CCn1c2ccccc2c2nn(C)c(=N)nc21,>57,-13%
Cc1ccc(C(C)C)cc1S(=O)(=O)NCc1cccnc1,>57,0%
CCN(CC)C(=O)CSC1=Nc2ccccc2C2=NC(Cc3c[nH]c4ccccc34)C(=O)N12 (centres undefined),>57,9%
CN1C(=O)CSc2ccc(NC(=O)N3CCOCC3)cc21,>57,-21%

# This is a subset (hit frequency here may not be typical).
